H5N1 CPE = MDCK cell protection from H5N1 avian flu; 96,000 compounds, 0.07% hits; cytopathic effect, luminescence, 72 h; stronger effect = higher value; no value below 0 was filed and about half of the inactive calls have no number; reference of the scale not given here; inhibition, % at 50 µM; AID 740, 2007; in the data active = inhibition above about 25%
Active calls of the source: *; i = inactive. The list is partial; rates above refer to the full screens.

SMILES	H5N1 CPE
COc1ccc(-c2ccc(C#N)c(SCC(=O)Nc3sc4c(c3C#N)CCC4)n2)cc1	i
CC1(C)Cc2c(sc3nc4n(c(=N)c23)CCC4)CO1	i
COC(=O)/C(=C(/F)SCC(C)=O)C(F)(F)F	i
O=S(c1ccsc1)c1ccsc1	i
CCOC(=O)c1ccc2nc(NC(=O)C(C)C)sc2c1	0.2
COc1cccc(C2(O)CCN(C(=O)C3CC3)CC2)c1	i
CN(C)c1ccc(NC(=O)Cn2ncn3c(cc4ccccc43)c2=O)cc1	0.6
Cc1oc2ccc(NS(=O)(=O)c3ccc(C(C)(C)C)cc3)cc2c1C(=O)Nc1ccccc1	i
CCn1c(CSCc2ccc(C)cc2)nnc1SCC(=O)NCc1ccccc1	0.5
CC1CCN(C(C(=O)Nc2ccc3c(c2)OCO3)c2ccccc2)CC1 (stereo unspecified)	1.5
CCCCOC(=O)Cn1c(=O)oc2ccc(C)cc21	0.2
CC(C)Sc1n[nH]c2nc3c(c(=O)n12)C1(CCCC1)Cc1ccccc1-3	i
CC(C)(C)n1nc2c(c1NC(=O)CCCc1ccccc1)CS(=O)C2 (stereo unspecified)	i
CC12C(=O)N(c3ccccn3)C(=O)C1C1C=CC2C1 (stereo unspecified)	2.6
COc1ccc(/C=C/C(=O)c2ccoc2)cc1	i
CCN(CC)C(=O)C1=C(C)NC(=O)NC1c1c(F)cccc1Cl (stereo unspecified)	0.6
CCS(=O)(=O)N1CCC(C(=O)NCc2ccco2)CC1	0.2
CCOC(=O)N1CCN(S(=O)(=O)c2ccc3[nH]c(=O)sc3c2)CC1	i
O=C(OCn1ncc(Cl)c(Cl)c1=O)c1ccc(F)cc1	4.3
CC1CCN(C2CCN(S(=O)(=O)c3ccc(F)cc3)CC2)CC1	0.7
CCc1ccc(NC(=O)c2cnn3ccccc23)cc1	i
CCCCCc1nc2c(C#N)c(-c3ccc(Cl)cc3)ccn2n1	i
COc1ccc2c(c1)cc1n2CCN=C1NCCO	i
CCOc1ccc(/C=N/NC(=S)Nc2c(C)cccc2C)cc1	1.5
COc1ccc(OC)c(NC(=O)C2CCCN(S(=O)(=O)c3c(C)noc3C)C2)c1 (stereo unspecified)	i
O=C(C1CCN(S(=O)(=O)c2cccc3nsnc23)CC1)N1CCc2ccccc2C1	i
CCCCCn1c(=NC(C)=O)c(C#N)cc2c(=O)n3ccccc3nc21	2.8
COc1ccc(-c2nc(-c3ccccc3)c(-c3cccs3)[nH]2)cc1OC	1.6
CC(C)(C)NC1=CC(=O)OC12CCCCC2	i
COc1cccc(N2CC(C)Cn3c2nc2c3c(=O)n(CCN3CCOCC3)c(=O)n2C)c1 (stereo unspecified)	1.3
CCN(CC)CCNC(=O)Cn1c(C)cc2ccccc2c1=O	i
O=C(O)c1cccc(Nc2ncnc3c2cnn3-c2ccccc2)c1	0.6
O=C1CC(c2ccccc2)CC2=C1C(c1ccccn1)Nc1ccccc1N2 (stereo unspecified)	0.1
CCOc1cc(C(=O)N2CCC3(CC2)OCCO3)cc(OCC)c1OCC	0.2
CCC(=O)Nc1cccc(-c2cn3ccsc3n2)c1	i
CS(=O)(=O)N1CCc2cc(C(=O)N3CCCCC3)ccc21	0.1
CC(=O)Nc1ccc(S(=O)(=O)NCC(C)NS(=O)(=O)c2ccc(NC(C)=O)cc2)cc1 (stereo unspecified)	2.0
CCOC(=O)N1CCN(C(=O)CSCC(=O)Nc2nc(-c3ccc(C)cc3)cs2)CC1	0.2
CN(C)C(=O)COn1c(SCC(=O)N(C)C)nc2ccccc2c1=O	i
CC(C#N)On1c(SC(C)C#N)nc2ccccc2c1=O (stereo unspecified)	0.8
Cc1nc2ncnn2c(C)c1CCC(=O)O	i
CCn1c(SCC(=O)NC2CCCCC2C)nnc1-c1ccc(OC)cc1 (stereo unspecified)	i
O=C(CN(Cc1ccc(Cl)c(Cl)c1)S(=O)(=O)c1ccccc1)N/N=C\c1ccc2c(c1)OCO2	3.5
Cc1ccc(C2(O)CCN3CCCCC32)cc1 (stereo unspecified)	i
O=C1CN(C(=O)COC(=O)C23CC4CC(CC(O)(C4)C2)C3)c2ccccc2N1	1.0
Cc1c(C)c2cc(Cl)c(O)c(CN3CCCCC3)c2oc1=O	0.6
O=C(Cn1cnc2c(oc3ccccc32)c1=O)N1CCN(c2ccccc2)CC1	1.4
CCOC(=O)CSC1=C(C#N)C(c2ccccc2C)C2=C(CCCC2=O)N1 (stereo unspecified)	i
CC(C)Sc1nnc([C@@H]2CCCN2C(=O)OC(C)(C)C)o1	0.1
CCCCC(C(=O)NC1CCCC1)N(Cc1ccco1)C(=O)Cn1nnc(-c2ccc(F)cc2)n1 (stereo unspecified)	i

Later entries:
SMILES	H5N1 CPE
Cc1ccc2cccc(S(=O)(=O)N3CCN(c4cccc(Cl)c4)CC3)c2n1	2.9
CC(=O)N1C(=O)c2cccc3cccc(c23)C(=O)N1C(C)=O	0.9
O=C(Nc1ccccc1)N1CC=C(c2ccccc2)CC1	i
COc1ccc(-c2cc(C(F)(F)F)nc(S(C)(=O)=O)n2)cc1	i
N#Cc1ccsc1NC(=O)CSc1nnc(-c2ccccc2)o1	i
Cc1nn(Cc2c(F)c(F)c(F)c(F)c2F)c(C)c1NC(=O)c1ccc(COc2ccc(F)cc2)o1	i
O=C(CSc1nc2ccccc2c(=O)n1Cc1ccco1)c1ccc(F)cc1	i
Cc1nc2ccc(Nc3nc4cc(S(=O)(=O)N5CCOCC5)ccc4o3)cc2s1	i
c1ccc(-c2cn3cccnc3n2)cc1	1.1
C=CCn1c(CSc2nc3ccccc3s2)n[nH]c1=S	0.1
COc1cc(-c2nc3n(n2)C(c2ccncc2)C(C(N)=O)=C(C)N3)cc(OC)c1OC (stereo unspecified)	i
O=C(Nc1ccccc1C(F)(F)F)C1CC(=O)N(c2ccccc2F)C1 (stereo unspecified)	i
Cc1cc(Cl)ccc1OC(C)C(=O)O (stereo unspecified)	i
COc1ccc(OC(C)C(=O)N2CCN(c3ccccn3)CC2)cc1 (stereo unspecified)	0.2
O=C(Cc1ccc2c(c1)CCCC2)Nc1ccccc1Cl	0.5
Cc1cccc(Cn2c(=O)n(Cc3ccco3)c(=O)c3ccccc32)c1	i
COc1cc(/C=N/N(C)c2ccccc2)cc(Cl)c1O	i
Cc1[nH]nc2c1C(=O)CC(C)(C)C2	0.6
CCc1ccc(N/C(SCc2ccccc2C)=C(/C#N)C(=O)NCc2ccco2)cc1	i
Cc1ccc2ncc(NC(=O)c3ccc(F)cc3)c(=O)n2c1	i
COC(=O)C1(C(=O)OC)NOC2C(=O)N(c3ccc(Cl)cc3Cl)C(=O)C21 (stereo unspecified)	i
CCCCS(=O)(=O)NC1=NCN(Cc2ccco2)CN1	i
CCN(CC)CCOC(=O)c1ccc(NC(=O)CCNC(=O)Cn2ccc3ccccc3c2=O)cc1	6.1
CN(Cc1ccccc1)C(=O)C1CCCN(Cc2ccc(Cl)cc2)C1 (stereo unspecified)	i
COC(=O)c1ccc(COc2ncnc3c(Cl)cc(Cl)cc23)o1	i
COCCNS(=O)(=O)c1ccc(F)c(OC)c1	0.4
Cc1cc(C)n(C(CC(=O)N2CCc3ccccc3C2)C(=O)O)n1 (stereo unspecified)	1.4
CCOC(=O)c1c(C)c(C(=O)NCCN2CCOCC2)c(C)n1C	i
CC1CCCN(S(=O)(=O)c2ccc(S(=O)(=O)NC(C)c3cccs3)cc2)C1 (stereo unspecified)	6.6
O=C(Nc1ccc(Oc2cccnc2)cc1)c1ccccc1F	1.7
Cc1ccc(N=Nc2c(N)[nH]n3c(=O)cc(-c4ccccc4)nc23)cc1	1.8
Cc1cc(C)nc(NC(=O)c2ccc(OC(C)C)cc2)n1	i
Cc1nc2ncnn2c(C)c1CCC(=O)NC(C)CCc1ccco1 (stereo unspecified)	i
O=C(CSc1nnnn1-c1ccc(F)cc1)NC1CCCCC1	0.9
COc1ccc(C2C(C(=O)Nc3cccc(C)n3)c3ccccc3C(=O)N2C)cc1 (stereo unspecified)	i
COc1ccc(-c2nc(CSCC(=O)NCC3CCCO3)c(C)o2)cc1OC (stereo unspecified)	i
O=C(/C=C/c1ccccc1)Nn1cnnc1	i
O=C(N1CCCCCC1)N1CCN(C(=O)N2CCOCC2)CC1	0.0
COc1ccc(N2C(=O)CC(S/C(N)=N/N=C(\C)c3cccs3)C2=O)cc1 (stereo unspecified)	i
O=C1OC(NC(=O)c2ccccc2)C(n2cc(CO)nn2)=C1Cl (stereo unspecified)	i
Cc1ccc(Cn2c(SCC(C)C)nc3c2c(=O)n(C)c(=O)n3C)cc1	1.2
C[C@H](NC(=O)c1ccccc1Cl)C(=O)OC(C(=O)Nc1cc(C(F)(F)F)ccc1Cl)c1ccccc1 (stereo partly specified)	i
Cc1cnc(NC(=O)c2cc3c(C)nn(-c4ccccc4)c3s2)s1	i
CCCn1c(SCC(=O)NCCc2ccccc2)nnc1-c1ccccn1	0.1
O=C(NCCO)C1CCN(S(=O)(=O)c2ccc(F)cc2)CC1	0.2
CC1CCCCC1NC(=O)C1CCN(C(=O)c2sccc2-n2cccc2)CC1 (stereo unspecified)	0.2
CCOCCCNS(=O)(=O)c1ccc2c(c1)oc(=O)n2CC(=O)OCC	0.1
C=CCn1cnc2scc(-c3ccccc3)c2c1=O	i
O=C(Nc1nccs1)c1ccc(Br)o1	0.5
CCCn1c(SCC(=O)NCCc2ccccc2)nnc1-c1cccnc1	0.5

Shown field by field: part of the list above.
Cc1ccc(N=Nc2c(N)[nH]n3c(=O)cc(-c4ccccc4)nc23)cc1
  H5N1 CPE: 1.8

Cc1cc(C)nc(NC(=O)c2ccc(OC(C)C)cc2)n1
  H5N1 CPE: i

Cc1nc2ncnn2c(C)c1CCC(=O)NC(C)CCc1ccco1 (stereo unspecified)
  H5N1 CPE: i

O=C(CSc1nnnn1-c1ccc(F)cc1)NC1CCCCC1
  H5N1 CPE: 0.9

Later entries:
SMILES	H5N1 CPE
CS(=O)(=O)N1CCN(c2ccc(NC(=O)CSc3ccc(Cl)cc3)cc2)CC1	i
CN1C(=O)N(C)C(=O)C2(Sc3ccccc3C2=O)C1=O	0.7
CC1CCC/C(=C\Nc2ccc(O)cc2)C1=O (stereo unspecified)	2.4
COc1cccc(-c2nc(CS(=O)(=O)CC(=O)NCCC(C)C)c(C)o2)c1	i
Cc1ccc(Cc2cnc(NC(=O)c3cccs3)s2)cc1	i
CCOC(=O)C1=C(c2ccccc2)N(C)C(=O)NC1c1ccc(OC(F)F)c(OC)c1 (stereo unspecified)	i
Cc1ccc(S(=O)(=O)N2CCN(C(=O)CC3CCCC3)CC2)cc1	1.7
COCCNC(=O)C(c1ccccc1)N(CCOC)C(=O)Cn1nnc2ccccc21 (stereo unspecified)	37*
CC1(C)CC(=O)CC(C)(C)N1OC(=O)c1ccccn1	0.2
CCOc1cc(/C=C2/C(=N)N3OC(C)=CC3=NC2=O)ccc1OCCOc1ccccc1	i
COCCCNC(=O)c1c(N)n(/N=C/c2cccnc2)c2nc3ccccc3nc12	0.1
NC(=O)c1oc2ccccc2c1NC(=O)c1ccco1	0.2
CC(C)c1ccc(/C=C/C(=O)n2nnc3ccccc32)cc1	1.0
O=c1c(-c2ccccc2)n[nH]c2ccccc12	i
Cc1cc(C)c2cc(C)c3nnc(SCC(=O)NCc4ccc5c(c4)OCO5)n3c2c1	0.6
CCn1c(Cc2ccccc2)nnc1SCc1nc2ccccc2c(=O)[nH]1	0.3
COc1cc(/C=N/NC(=O)c2sc(N)c(C#N)c2C)ccc1O	0.2
CCOC(=O)c1c(C)c(C(=O)Nc2ccc3c(c2)OCCO3)c(C)n1C	i
Nc1c(-c2ccccc2Cl)cnn1-c1cccc([N+](=O)[O-])c1	1.6
COc1cc(C)nc(NC(=O)COc2ccc(Cl)cc2C)n1	0.4
Nc1nc(-c2ccccc2)cc(-c2ccccc2O)n1	0.7
CC(C)=CC(=O)OCC(=O)NC(=O)NC(C)(C)C	i
CCOC(=O)c1nc(Nc2ccc(C)cc2)c2ccccc2n1	i
COc1ccccc1C1SCCN1S(C)(=O)=O (stereo unspecified)	i
Clc1ccc2c(N3CCNCC3)ccnc2c1	i

Overlap with the part before: 4 entries, followed by the next part.
SMILES	H5N1 CPE
CC(C)=CC(=O)OCC(=O)NC(=O)NC(C)(C)C	i
CCOC(=O)c1nc(Nc2ccc(C)cc2)c2ccccc2n1	i
COc1ccccc1C1SCCN1S(C)(=O)=O (stereo unspecified)	i
Clc1ccc2c(N3CCNCC3)ccnc2c1	i
CC(C)CC(=O)Nc1ccc(C(=O)NNC(=S)NC(=O)C2CCCCC2)cc1	5.5
COc1ccc(C(=O)/C=C2\NCC3c4ccccc4CCN3C2=O)cc1 (stereo unspecified)	i
CCCCNc1cc(C)nc(NCc2ccccc2)n1	i
CCOc1ccc2ccccc2c1C(=O)N1CCOCC1	1.1
O=C(Nc1nc(-c2ccccc2)cs1)NC1CCCCC1	0.0
O=C(NNC(=O)C1CC(c2cccnc2)=NO1)Nc1cccc(F)c1 (stereo unspecified)	0.4
COc1cc(CC(=O)N2CCc3ccccc32)cc(OC)c1OC	i
O=C1CCCc2c1cc(-c1ccccc1)n2-c1ccccc1	1.6
